Assay outcomes as filed in PubChem.
MenB inh: blocks the Mycobacterium tuberculosis MenB enzyme. 0.43% of 100,000 active. inhibition, %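 (about 12 µg/mL by stock and volumes)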. MenB enzyme assay, absorbance read-out; some hits fall short of the stated cut. P9WNP5;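 active = mean of two replicates above 30%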;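 also: 0% = no compound and 100% = wells with inactive enzyme; the first replicate is given; strong numbers were not always called active; inactives centre near -10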
MbtI inh: MbtI salicylate synthase inhibition | purified MbtI enzyme, fluorescence intensity read-out | inhibition, %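 (about 17 µg/mL by stock and volumes)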 | 0.89% of 100,000 active;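 active = above 50% in both replicates, above 80% if mildly self-fluorescent; inactive = the rest, strongly fluorescent compounds included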;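 also: 0% = mean of negative and 100% = mean of positive controls; one replicate is shown; some compounds called inactive have numbers as strong as hits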
Target sequence (P9WFX0 whole entry, looked up): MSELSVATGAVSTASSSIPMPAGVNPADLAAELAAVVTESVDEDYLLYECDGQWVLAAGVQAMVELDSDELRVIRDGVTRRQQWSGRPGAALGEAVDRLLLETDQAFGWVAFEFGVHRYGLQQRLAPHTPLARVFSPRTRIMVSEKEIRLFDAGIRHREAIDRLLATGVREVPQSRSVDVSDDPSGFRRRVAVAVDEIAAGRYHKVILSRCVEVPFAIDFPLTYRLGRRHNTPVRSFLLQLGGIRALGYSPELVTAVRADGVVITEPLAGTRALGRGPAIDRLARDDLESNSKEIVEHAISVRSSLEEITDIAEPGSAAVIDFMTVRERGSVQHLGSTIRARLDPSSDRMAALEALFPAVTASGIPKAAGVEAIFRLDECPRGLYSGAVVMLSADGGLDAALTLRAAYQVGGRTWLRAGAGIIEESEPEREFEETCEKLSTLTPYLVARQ
PV pol inh: inhibitors of poliovirus RNA polymerase binding and polymerization. poliovirus polymerase elongation, fluorescence polarization; hits give low values. % elongation, % (compound at 16.7 µg/mL). P03300. 0.66% of 150,000 active; in the data active = % elongation below about 90%; also: some results filed as inactive read as strong as hits
Target sequence (P03300 1749-2209 limits assumed): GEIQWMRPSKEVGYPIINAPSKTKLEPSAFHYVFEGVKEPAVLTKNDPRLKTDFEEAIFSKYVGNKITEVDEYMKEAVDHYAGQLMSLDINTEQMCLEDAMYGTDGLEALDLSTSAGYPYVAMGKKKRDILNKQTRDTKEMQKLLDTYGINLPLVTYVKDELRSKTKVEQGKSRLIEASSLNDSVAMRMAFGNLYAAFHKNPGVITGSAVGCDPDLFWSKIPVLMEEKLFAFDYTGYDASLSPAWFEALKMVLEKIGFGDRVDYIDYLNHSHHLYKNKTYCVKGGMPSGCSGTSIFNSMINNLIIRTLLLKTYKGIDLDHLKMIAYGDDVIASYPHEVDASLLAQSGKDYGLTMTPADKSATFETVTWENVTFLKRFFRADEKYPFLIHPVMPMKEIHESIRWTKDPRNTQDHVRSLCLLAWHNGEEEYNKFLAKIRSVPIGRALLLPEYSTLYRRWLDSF
PV pol inh intensity: recorded beside PV pol inh, whose call it bears; % elongation; measured here: total intensity read-out; formula for this scale not given here;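 total fluorescence in place of polarization; lower means less elongation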
* marks the source's active call; other numbers are inactive results; i = inactive; / = no result given; & = joins results of further samples.

Sample of the layout (6 entries):
SMILES	MenB inh	MbtI inh	PV pol inh	PV pol inh intensity
O=C(Nc1ncn[nH]1)c1ccc2c(c1)S(=O)(=O)c1ccccc1C2=O	-14	-13	103	109
O=C1/C(=C/c2ccccc2)CC/C1=C1\SCC(=O)N1c1ccccc1	-15	-4	102	109
CC(C)=CCC(C)(C)C1OCCN1C(=O)c1ccccc1 (configuration not stated)	-25	/	103	108
CCOC(=O)c1cccc(NS(=O)(=O)c2cc(-c3cc(C)[nH]n3)ccc2C)c1	-24	16	100	100
COC(=O)c1c(N)n(-c2ccc(OC)cc2)c2nc3ccccc3nc12	3	17	103	103
CC(=O)Oc1cc(C(F)(F)F)ccc1C(=O)O	-1	-332	100	101

The listing, from the first entry:
SMILES	MenB inh	MbtI inh	PV pol inh	PV pol inh intensity
O=C(Nc1ncn[nH]1)c1ccc2c(c1)S(=O)(=O)c1ccccc1C2=O	-14	-13	103	109
O=C1/C(=C/c2ccccc2)CC/C1=C1\SCC(=O)N1c1ccccc1	-15	-4	102	109
CC(C)=CCC(C)(C)C1OCCN1C(=O)c1ccccc1 (configuration not stated)	-25	/	103	108
CCOC(=O)c1cccc(NS(=O)(=O)c2cc(-c3cc(C)[nH]n3)ccc2C)c1	-24	16	100	100
COC(=O)c1c(N)n(-c2ccc(OC)cc2)c2nc3ccccc3nc12	3	17	103	103
CC(=O)Oc1cc(C(F)(F)F)ccc1C(=O)O	-1	-332	100	101
CC(Sc1nnc(-c2ccc3c(=O)n4c(nc3c2)CCCCC4)o1)C(=O)Nc1ccc(F)cc1 (configuration not stated)	-10	-55	106	110
CCn1c(C(=O)OC)cc2sc(Cl)cc21	-14	6	102	102
CC(C)=C(C#N)c1nc2ccccc2n1C	/	-1	99	99
O=C(CSc1nc2ccccc2c(=O)n1-c1ccccc1)N1CCN(CCO)CC1	-14	/	104	105
CCOCc1cnc(C)nc1NC(C)=O	7	1	99	104
CC[N+](C)(CC)Cc1ccccc1	-9	/	105	107
COc1ccccc1S(=O)(=O)Cc1ccc(C(=O)NC2CCCCCC2)o1	-11	6	100	107
Cc1c(NS(=O)(=O)N2CCCCC2)c(=O)n(-c2ccccc2)n1C	-8	-14	103	104
O=C([C@@H]1CCCN1C(=O)c1cccs1)N(CC1CCCO1)C1CCS(=O)(=O)C1 (some centres not stated)	-36	13	103	103
O=C(Cc1ccccc1)Sc1nc2ccccc2[nH]1	-16	/	103	109
O=C(c1cc(C2CC2)[nH]n1)n1ccnc1	4	0	97	92
Oc1ccc(/C=N/NC(=S)NCC2CCCO2)cc1 (configuration not stated)	-54	-4	100	99
CN(Cc1ccccc1)c1nnc(NC(=O)c2cc(-c3ccc(Br)cc3)on2)s1	7	5	103	98
Cc1nn(-c2ccccc2)c2sc(C(=O)NN3CCOCC3)cc12	-23	/	105	95
O=C(CSc1n[nH]c(=O)[nH]c1=O)c1ccc(Cl)cc1	10	-3	104	102
COc1ccc(C2C(=O)c3ccccc3C2=O)cc1	5	3	100	101
CCC1CCCCN1C(=O)COC(=O)c1cnc(Cl)c(Cl)c1 (configuration not stated)	/	-15	105	107
CN(Cc1ccc(Cl)cc1Cl)Cn1ccn(C)c1=S	-4	-7	99	110
c1ccc(OCCSc2nc3ccccc3o2)cc1	15	7	100	101
Remaining list, next part.
SMILES	MenB inh	MbtI inh	PV pol inh	PV pol inh intensity
c1ccc2c(c1)CCN(Cc1ccncc1)C2	-19	-19	101	103
Cc1cc(-c2c(C(=O)NN3CCOCC3)c(C)nn2-c2ccccc2)no1	-14	1	105	105
Nc1ccnn1C1CCCC1	-31	-2	100	102
CCN1C/C(=C\c2ccc3c(c2)OCO3)C(=O)/C(=C/c2ccc3c(c2)OCO3)C1	-34	/	108	104
O=C(CCn1c(SCC(=O)NCc2ccccc2)nc2cc3c(cc2c1=O)OCO3)NCc1ccc2c(c1)OCO2	-2	9	100	102
O=C1CC(C(=O)NC2CCCCC2)C(c2ccccc2)O1 (configuration not stated)	4	2	103	104
COc1ccc(C(=O)Nc2c(N)nc(SCC(=O)NC3CCCCC3)[nH]c2=O)cc1	-19	-3	103	102
O=C(O)COc1nsnc1N1CCOCC1	-3	6	102	98
COc1ccc(C2=NOC(CN3C(=O)c4ccccc4S3(=O)=O)C2)cc1 (configuration not stated)	-8	10	99	100
COc1nc(C)nc(NC(=O)NN)n1	-14	-6	101	102
O=C(c1ccc(Nc2nc3ccccc3n3nnnc23)cc1)N1CCc2ccccc2C1	9	42	101	109
COc1cccc(OC)c1C(=O)N=c1sc2cc(S(C)(=O)=O)ccc2n1C	-19	-6	103	103
COc1ccc(S(N)(=O)=O)cc1C(=O)Nc1ccc(N2CCOCC2)cc1	0	-4	101	101
Cc1nc(C)c(S(=O)(=O)NCc2ccc(N3CCN(C)CC3)cc2)s1	-4	-11	102	103
COc1cccc(-c2cc(C(=O)Nc3cccnc3)on2)c1	2	-2	101	103
Cc1cc(NC(=O)COC(=O)C2=COCCO2)n(-c2ccccc2)n1	-19	-2	104	101
Cc1cc(C(=O)/C(C#N)=C/Nc2cccc(OC(F)(F)F)c2)c(C(F)(F)F)o1	9	6	102	96
CC(C)C(=O)N(c1ccc2oc(=O)sc2c1)S(=O)(=O)c1ccccc1	-19	0	102	102
c1csc(-c2csc(N3CCCCC3)n2)c1	-39	12	98	105
O=C(CC12CC3CC(CC(C3)C1)C2)Nc1ccc2oc(-c3ccncc3)nc2c1	-26	-48	104	102
CC12C=CC(O1)C1C(=O)N(c3ccccc3Cl)C(=O)C12 (configuration not stated)	/	66*	103	97
COC(C)C(O)(C(=O)OC1=CCN2CC[C@H](O)[C@@H]12)C(C)C (some centres not stated)	-8	/	104	104
O=S(=O)(NCCc1nnc2ccc(SCc3ccccc3)nn12)c1ccccc1	-2	-15	101	106
Cc1cc(=O)nc2c3ccccc3n(C(C)C(=O)Nc3c(F)c(F)cc(F)c3F)n12 (configuration not stated)	4	113	105	107
NC(N)=NCCCCN=C(N)N	6	-7	103	102
The list goes on.
SMILES	MenB inh	MbtI inh	PV pol inh	PV pol inh intensity
CC(NC(=O)NC1CCN(c2nc3ccccc3s2)CC1)c1cccs1 (configuration not stated)	7	9	99	104
Clc1ccc(CN2C3=NCCCN3c3ccccc32)c(Cl)c1	-6	-6	101	100
COC(=O)C1=C(C)NC(=O)NC1/C=C/c1ccccc1 (configuration not stated)	-19	/	107	102
CC1=CCC(C(=O)O)C(C(=O)Nc2ccc(-c3nc4ccc(C)cc4s3)cc2)C1 (configuration not stated)	-13	/	98	102
CCOC(=O)N1CCN(c2ccc(O)cc2)CC1	/	74	101	98
O=C1NN(C(=O)Nc2ccc(Br)cc2)[C@@H](c2ccccc2)[C@@H]1c1ccccc1	-11	4	111	107
CC1CCCC(C)N1C(=O)CN(C)S(=O)(=O)c1ccc2c(c1)OCCO2 (configuration not stated)	-5	-2	97	92
O=C(Nc1ccc(C(=O)NC2CCCCC2)cc1)c1cncc(Br)c1	-12	/	104	108
Cc1ccc(NS(=O)(=O)CC23CCC(CC2=O)C3(C)C)cc1 (configuration not stated)	4	4	103	103
Nc1ccccc1C(=O)NCc1ccc2c(c1)OCO2	-4	i	99	99
COCCn1cnnc1SCC(=O)C12CC3CC(CC(C3)C1)C2	-12	17	99	94
COc1ccc(-c2csc(C3=C(O)CN(CCC(C)C)C3=N)n2)cc1OC	2	8	101	106
OC(CNCc1ccc(-c2ccccc2Cl)o1)c1ccccc1 (configuration not stated)	-31	-7	101	99
CC(=O)Nc1cc(OC(=O)c2ccco2)cc(OC(=O)c2ccco2)c1	3	-10	99	103
O=C(OCc1ccc(Br)cc1)c1cccnc1	-2	/	111	121
CCN1C2=C(C(=O)CCC2)C(c2cccc(O)c2)C2=C1CCCC2=O	-96	-3	101	108
CCN1C(=O)c2ccccc2S(=O)c2ccc(C(=O)N3CCc4ccccc4C3)cc21 (configuration not stated)	-21	6	100	102
CC(=O)Oc1cc2c(C(=O)NC3CC(C)(C)NC(C)(C)C3)c(C)oc2c2ccccc12	2	11	103	105
CCOC(=O)CN1NC2(CCCCCCC2)NC1=S	-3	2	102	104
CCCNC(=O)C1CCN(C(=O)c2cc3sccc3n2Cc2ccc(Cl)cc2)CC1	12	-2	102	103
Cc1ccccc1-c1nc2cc(NC(=O)C3CC3)ccc2o1	4	/	107	100
Cc1noc2ncnc(N(C)Cc3ccccc3)c12	-16	22	100	99
Cc1cc(C(=O)O)ccc1N/C=C1\CCCC(C)C1=O (configuration not stated)	-46	12	104	99
O=C(Nc1nc(-c2ccc(Cl)c(Cl)c2)cs1)C1CC1	-8	12	100	95
COc1ccc(/C=N/NC(=O)c2sc(C)nc2C)cc1	11	48	100	106

Compound profiles, as listed above.
`CCCNC(=O)C1CCN(C(=O)c2cc3sccc3n2Cc2ccc(Cl)cc2)CC1` in the list: MenB inh = 12; MbtI inh = -2; PV pol inh = 102; PV pol inh intensity = 103
`Cc1cc(C(=O)O)ccc1N/C=C1\CCCC(C)C1=O` (configuration not stated) in the list: MenB inh = -46; MbtI inh = 12; PV pol inh = 104; PV pol inh intensity = 99
`Clc1ccc(CN2C3=NCCCN3c3ccccc32)c(Cl)c1` in the list: MenB inh = -6; MbtI inh = -6; PV pol inh = 101; PV pol inh intensity = 100

(listing goes on)
SMILES	MenB inh	MbtI inh	PV pol inh	PV pol inh intensity
COC(=O)c1ccc(Cn2nc(C)c(Cl)c2C)cc1	/	-14	103	106
CCOc1ccc2nc(NC(=O)c3ccncc3)sc2c1	-7	21	100	98
CC1CC(C)(C)OC(c2ccccc2)O1 (configuration not stated)	10	-8	99	102
CCC1(CC)C(=O)N=C(SCC(=O)Nc2c(C)n(C)n(-c3ccccc3)c2=O)N(C)C1=O	-7	-17	102	102
COc1ccc(CC(=O)N2CCN(c3ncccn3)CC2)cc1OC	2	-12	106	113
CCOC(=O)C1CCCN(C(=O)c2sc3nc(-c4ccccc4)cn3c2C)C1 (configuration not stated)	-18	4	99	103
Cc1cc(C(=O)O)c2cc(O)ccc2n1	9	/	99	103
Cc1ccc(S(=O)(=O)C=C(c2ccccc2)c2ccccc2)cc1	-25	/	102	99
COC(=O)c1ccc(C(=O)OC)c(N(C)S(C)(=O)=O)c1	-21	-3	104	106
CC1(C)CC(=O)C2=C(C1)Nc1[nH]n(-c3ccccc3)c(=O)c1C2c1ccco1 (configuration not stated)	3	/	103	103
CC1(C)CC(=O)c2sc(NS(C)(=O)=O)nc2C1	-18	22	103	102
CN=C1SC(CC(=O)Nc2ccc(Br)cc2)C(=O)N1/N=C/c1cccs1 (configuration not stated)	-15	1	/	/
O=c1onc(-c2ccccc2)n1-c1cccc(Cl)c1	-16	1	104	103
Cc1[nH]c2ccccc2c1Sc1ccccc1	2	/	111	107
CN(C(=O)COc1cc(C(F)(F)F)n(C)n1)c1ccccc1	4	1	102	106
CCCNC(=O)c1sc2nc(C)cc(C)c2c1-n1cccc1	5	-8	101	103
C=CCn1c(-c2cccs2)nc(-c2ccccc2)c1-c1ccccc1	-16	i	103	99
CCC(Sc1n[nH]c(=O)[nH]c1=O)C(=O)O (configuration not stated)	-7	11	101	100
CC(C)(C)C(=O)CSc1ncnc2sccc12	-3	14	102	108
O=C(Cn1nnc2ccccc21)N1CCN(c2ccccc2)CC1	/	-9	105	104
O=c1[nH]cnc2c1nnn2Cc1ccccc1F	8	0	100	100
Cc1cc2cc(CNC(=O)NC3CCCCC3)ccc2[nH]1	-3	-1	101	104
O=C1CC(c2ccccc2)C(=O)N1Cc1ccc(Cl)cc1 (configuration not stated)	-22	-35	101	99
CCc1oc2ccccc2c1C(=O)CCN1CCCCC1	4	/	105	106
COC(=O)c1sccc1N/N=C(/C#N)C(=O)C1CC1	4	8	105	100
New compounds follow:
SMILES	MenB inh	MbtI inh	PV pol inh	PV pol inh intensity
COC(=O)c1noc(C)c1-c1ccnn1C(=O)c1cc(C(F)(F)F)cc(C(F)(F)F)c1	-19	-1	101	96
Cc1ccc(-c2nc(C#N)c(NCCCn3ccnc3)o2)cc1	-8	106	101	97
Cc1cc(C)cc(OCCn2c(-c3ccc(Cl)cc3)nc3ccccc3c2=O)c1	0	3	101	100
COCC(=O)Nc1nc2ccc(OC)cc2s1	-28	28	101	99
Cc1ccccc1Nc1nc(CN2CCN(S(=O)(=O)c3ccccc3C#N)CC2)cs1	-15	8	107	114
CCOC(=O)N1CCC(n2c(SCC(=O)Nc3ccc(C)cc3)nc3ccccc3c2=O)CC1	-12	-11	101	107
O=C(NC1CCCCC1)C1CC(=O)N(Cc2ccccc2)C1 (configuration not stated)	-8	0	102	104
CC(Oc1ccc(Cl)cc1Cl)C(=O)NCCN1CCOCC1 (configuration not stated)	-11	/	102	103
COc1ccc(C(=O)NCC(=O)OC2CCOC2=O)cc1 (configuration not stated)	3	-14	103	105
CCOP(=S)(OCC)C1(Nc2ccc(C)cc2)CCCCC1	-40	-1	102	98
CCCCn1c2ccccc2c2n[nH]c(=S)nc21	-23&-54	8&7	101&100	104&99
Nc1[nH]nc2nc(N3CCCC3)nc(-c3ccccc3)c12	-17	0	102	103
CC1CC(C)CN(C(=O)COC(=O)c2ccc(S(=O)(=O)N(C)C)cc2)C1 (configuration not stated)	-28	-15	104	110
O=C(Cn1sc2ccccc2c1=O)N1CCN(C(=O)c2ccco2)CC1	0	8	100	104
CC(=C1C(=O)c2ccccc2C1=O)N1CCC(Cc2ccccc2)CC1	-31	4	103	101
O=C(CN1C(=O)/C(=C/c2ccccc2)SC1=S)NC1CCCC1	-17	4	102	96
